Screening data as filed in PubChem.
BJeLR lethal: kills HRASV12-expressing BJeLR cells | BJeLR (HRASV12) viability, CellTiter-Glo ATP luminescence, 48 h; reference of the scale not given here | 0.17% of 300,000 active | inhibition, % (test concentration not listed);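 active = replicate mean above 50%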;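 note: 50 nL library stock added to about 25 µL; numbers are from one replicate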
Autofluor counter: counter-screen for toxin protease inhibitors: compound fluorescence; fluorescence intensity (test concentration not listed); AID 624483; 3.1% of 360,000 active; compound autofluorescence counterscreen, microsphere flow cytometry; active compounds read high;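 active = at least 3 SD above the mean of all compounds, about 16000 in these data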;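 note: 100 nL of 1 mM stock went into each well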
Sa RN4220 lethal: kills Staphylococcus aureus RN4220. S. aureus RN4220 growth, OD600, 16 h. inhibition, % (no concentration beside the values). 0.33% of 330,000 active. AID 1259311;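 active = z-score of -3 or lower and OD600 up to 0.18 on both plates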;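 note: plate controls were untreated cells for no effect and reference antibiotic for full effect; stock transfer was 100 nL into about 80 µL; one replicate is shown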
Mtb hypoxia inh: reduces hypoxia-regulated biosensor signal in M. tuberculosis; 0.1% of 300,000 active; M. tuberculosis hypoxia-regulated fluorescent reporter, fluorescence; fluorescence inhibition, % (no concentration beside the values);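 active = 35 to 45% if threefold the growth effect, above 45% if 1.5-fold the growth effect; inactive = the rest, general growth blockers included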;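 note: wells of about 50 µL received 100 nL stock; 0% = vehicle wells and 100% = reference inhibitor wells; whole bacteria with a GFP reporter of the hypoxia response; strong numbers were not always called active; many hits fall short of the cut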
PrP UTR inh: inhibition of PrP 5' UTR reporter expression; cell-based PrP 5' UTR mRNA reporter, plate reader; inhibition, % (test concentration not listed); 0.35% of 340,000 active;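 active = every replicate at 50% or more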;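 note: 0 = median of the neutral control wells; tested in H4 reporter cells; numbers are from one replicate; inactives centre near -14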
Sa ugtP lethal: kills S. aureus RN4220 lacking UgtP | S. aureus RN4220 ugtP deletion, OD600 growth, 16 h; some inactives read as strong as hits | growth inhibition, % (concentration not given with the values) | 0.54% of 330,000 active | AID 1259309;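 active = z-score under -3 and OD600 up to 0.15 on both plates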;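 note: plate controls were untreated wells for no effect and antibiotic for full effect; wells of about 80 µL received 100 nL stock; the first replicate is given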
Mtb hypoxia inh growth: also measured in Mtb hypoxia inh; calls as there; growth inhibition, %; measured here: M. tuberculosis growth (absorbance);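 0% = vehicle and 100% = reference antibiotic; read after six days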
Active calls of the source: *.

How did CC[C@]12c3[nH]c4ccc(OC)cc4c3CCN1C(=O)C(CC(=O)NCc1ccco1)C[C@@H]2C(=O)N1CCN(C(=O)c2ccco2)CC1 (stereo partly specified) do in these assays?
Autofluor counter: 3748; Sa RN4220 lethal: 1.7; Mtb hypoxia inh: -12; PrP UTR inh: -13; Sa ugtP lethal: 6; Mtb hypoxia inh growth: -8

How did O=C(CNC(=O)C1CCCCC1)OCC(=O)c1ccc(Br)cc1 do in these assays?
BJeLR lethal: 6; Autofluor counter: 6251; Sa RN4220 lethal: 5.4; Mtb hypoxia inh: 11; PrP UTR inh: -27; Sa ugtP lethal: 1; Mtb hypoxia inh growth: 2

What do the screens show for `CC(=O)c1cccc(OCC(=O)OCC(=O)Nc2cc(S(=O)(=O)N3CCCCC3)ccc2C)c1`?
Autofluor counter: 2889; Sa RN4220 lethal: 4.2; Mtb hypoxia inh: 10; PrP UTR inh: -4; Sa ugtP lethal: 9; Mtb hypoxia inh growth: 3

What do the screens show for `CNc1ccccc1C(C)(C)c1cn(-c2ccc([N+](=O)[O-])cc2)nn1`?
BJeLR lethal: -4; Autofluor counter: 3594; Sa RN4220 lethal: 6.3; Mtb hypoxia inh: 5; PrP UTR inh: -3; Sa ugtP lethal: 12; Mtb hypoxia inh growth: 10

What do the screens show for `O=C(NCC1CCN(Cc2ccccc2Cl)CC1)Nc1cccc(Cl)c1`?
BJeLR lethal: -8; Autofluor counter: 4331; PrP UTR inh: -5

What do the screens show for `CCCC1=C(C(=O)OCC)C(c2ccc(OC)c(CSc3ccccn3)c2)C(C#N)=C(N)O1` (stereo unspecified)?
BJeLR lethal: -5; Autofluor counter: 2596; Sa RN4220 lethal: 6.3; Mtb hypoxia inh: 6; PrP UTR inh: -17; Sa ugtP lethal: 6; Mtb hypoxia inh growth: 11

Results for CC(SCc1ccccc1)C(=O)N/N=C/c1ccc(OCC(=O)NCc2ccco2)cc1 (stereo unspecified) ?
BJeLR lethal: 10; Autofluor counter: 2489; PrP UTR inh: -1

How did COCCNC(=O)/C(C#N)=C/c1ccc(-c2ccc(S(=O)(=O)N3CCOCC3)cc2)o1 do in these assays?
BJeLR lethal: -7; Autofluor counter: 2385; Sa RN4220 lethal: 5.7; Mtb hypoxia inh: 2; PrP UTR inh: -64; Sa ugtP lethal: -3; Mtb hypoxia inh growth: 7

Results for N#C/C(=C\c1ccc(N2CCCCC2)c([N+](=O)[O-])c1)c1nn(-c2ccccc2)c(N)c1C#N ?
BJeLR lethal: -5; Autofluor counter: 1941; Sa RN4220 lethal: 2.3; Mtb hypoxia inh: 0; PrP UTR inh: -6; Sa ugtP lethal: -1; Mtb hypoxia inh growth: 5

Results for CCn1c(O)c(C=Nc2ccc(S(N)(=O)=O)cc2)c(=O)n(CC)c1=S ?
BJeLR lethal: -14; Autofluor counter: 2540; Sa RN4220 lethal: 2.8; Mtb hypoxia inh: -4; PrP UTR inh: -22; Sa ugtP lethal: 2; Mtb hypoxia inh growth: 17

What do the screens show for `COc1ccc(-c2cnnn2-c2ccc(NC(=O)c3ccco3)cc2)cc1OC`?
BJeLR lethal: 6; Autofluor counter: 10920; Sa RN4220 lethal: 3.4; Mtb hypoxia inh: 5; PrP UTR inh: -15; Sa ugtP lethal: 5; Mtb hypoxia inh growth: -2

Results for CCOC(=O)C/C(C)=N/NC(=O)COc1ccccc1C ?
BJeLR lethal: -5; Autofluor counter: 8950; PrP UTR inh: -19

What do the screens show for `Cc1c[nH]c(=O)c([N+](=O)[O-])c1`?
BJeLR lethal: 7; Autofluor counter: 3280; Sa RN4220 lethal: 3.4; Mtb hypoxia inh: 12; PrP UTR inh: 3; Sa ugtP lethal: 1; Mtb hypoxia inh growth: -1

What do the screens show for `Cc1onc(-c2ccccc2)c1C(=O)N/N=C/C(Br)=C/c1ccccc1`?
BJeLR lethal: 20; Autofluor counter: 2589; PrP UTR inh: -37

How did COc1ccc(-c2nc(NC(=O)c3[nH]c(C)c(C(C)=O)c3C)sc2C)cc1 do in these assays?
BJeLR lethal: 26; Autofluor counter: 4776; Sa RN4220 lethal: 25; Mtb hypoxia inh: 8; PrP UTR inh: -7; Sa ugtP lethal: 21; Mtb hypoxia inh growth: 10

How did OC(COc1cccc2ccccc12)CN1CCN(c2ccc(Cl)cc2)CC1 (stereo unspecified) do in these assays?
BJeLR lethal: -1; Autofluor counter: 3947; Sa RN4220 lethal: 29; Mtb hypoxia inh: 7; Sa ugtP lethal: 6; Mtb hypoxia inh growth: 2

What do the screens show for `COc1cc(-c2nnn(CC(=O)N3CCOCC3)n2)cc(OC)c1OC`?
BJeLR lethal: -5; Autofluor counter: 4461; Sa RN4220 lethal: -1.7; Mtb hypoxia inh: -1; PrP UTR inh: -74; Sa ugtP lethal: -3; Mtb hypoxia inh growth: 4

How did CCCCOC(=O)CSc1nc2ccccc2o1 do in these assays?
BJeLR lethal: 6; Sa RN4220 lethal: 1.7; Mtb hypoxia inh: 3; Sa ugtP lethal: 9; Mtb hypoxia inh growth: -1

Results for Cc1cc(C)cc(-n2ncc3c2CCCC3NC(=O)CCN2CCCC2=O)c1 (stereo unspecified) ?
BJeLR lethal: -2; Autofluor counter: 5447; Sa RN4220 lethal: 0.3; Mtb hypoxia inh: 4; PrP UTR inh: -33; Sa ugtP lethal: 6; Mtb hypoxia inh growth: 1

How did CC(Oc1cccc(Cl)c1)C(=O)Nc1ccccc1N1CCCCC1 (stereo unspecified) do in these assays?
BJeLR lethal: 4; Autofluor counter: 5594; Sa RN4220 lethal: -3.5; Mtb hypoxia inh: 4; PrP UTR inh: -11; Sa ugtP lethal: -10; Mtb hypoxia inh growth: -6

What do the screens show for `O=C(CN(Cc1ccccc1Cl)C(=O)c1ccc(CN2CCOCC2)o1)NCC1CCCO1` (stereo unspecified)?
BJeLR lethal: -5; Autofluor counter: 3951; Sa RN4220 lethal: 0.4; Mtb hypoxia inh: 5; PrP UTR inh: 0; Sa ugtP lethal: -2; Mtb hypoxia inh growth: 7

How did COc1ccc(C2C(C(=O)c3cccs3)=C(O)C(=O)N2c2cccc(C)n2)cc1 (stereo unspecified) do in these assays?
BJeLR lethal: -4; Autofluor counter: 5664; Sa RN4220 lethal: 11; Mtb hypoxia inh: 14; PrP UTR inh: -9; Sa ugtP lethal: -2; Mtb hypoxia inh growth: 6

Results for COc1ccc(Nc2cc(C(=O)NCc3ccccn3)c3ccccc3n2)c(OC)c1 ?
BJeLR lethal: -8; Sa RN4220 lethal: -2.3; Mtb hypoxia inh: 2; Sa ugtP lethal: 0; Mtb hypoxia inh growth: 8

What do the screens show for `Cc1ccc(C(=O)NC(=S)NCc2ccco2)cc1`?
BJeLR lethal: 3; Autofluor counter: 2329; Sa RN4220 lethal: 7.2; Mtb hypoxia inh: -1; PrP UTR inh: -23; Sa ugtP lethal: 2; Mtb hypoxia inh growth: 10

What do the screens show for `Cc1cc(OCCN2CCCC2)cc(C(C)C)c1`?
BJeLR lethal: -4; Autofluor counter: 2230; Sa RN4220 lethal: 4.8; Mtb hypoxia inh: 4; PrP UTR inh: -26; Sa ugtP lethal: 8; Mtb hypoxia inh growth: 8

Results for CN1CCC(N2CC3CC(C2)c2cccc(=O)n2C3)CC1 (stereo unspecified) ?
BJeLR lethal: -3; Autofluor counter: 24622*; Sa RN4220 lethal: 0.8; Mtb hypoxia inh: 4; PrP UTR inh: -1; Sa ugtP lethal: 9; Mtb hypoxia inh growth: 5

What do the screens show for `Cc1ccc(C2CC(=O)C=C(NCc3ccccc3)C2)cc1` (stereo unspecified)?
BJeLR lethal: 16; Autofluor counter: 3922; Sa RN4220 lethal: -0.7; Mtb hypoxia inh: -11; PrP UTR inh: -23; Sa ugtP lethal: -1; Mtb hypoxia inh growth: 4

How did O=C(Cn1cnc([N+](=O)[O-])n1)c1ccccc1 do in these assays?
BJeLR lethal: -2; Autofluor counter: 2958; Sa RN4220 lethal: 0.9; Mtb hypoxia inh: 7; PrP UTR inh: -18; Sa ugtP lethal: 21; Mtb hypoxia inh growth: 0

Results for C=CCc1cc(CN2CC(C)OC(C)C2)c(O)c(OC)c1 (stereo unspecified) ?
Autofluor counter: 3843; Sa RN4220 lethal: 2.2; Mtb hypoxia inh: 6; PrP UTR inh: -4; Sa ugtP lethal: -1; Mtb hypoxia inh growth: 20

What do the screens show for `CC(=O)c1cccc(OCc2cc(C(=O)N3CC4C[C@@H]5CC3C[C@H](C4)C5)no2)c1`?
BJeLR lethal: 1; Autofluor counter: 4650; Sa RN4220 lethal: 2.8; Mtb hypoxia inh: 2; PrP UTR inh: -30; Sa ugtP lethal: -1; Mtb hypoxia inh growth: 10

Results for Cc1cccc(N2CCN(C(=O)c3ccccc3OCc3c(C)noc3C)CC2)c1C ?
BJeLR lethal: 10; Autofluor counter: 5006; Sa RN4220 lethal: 7.4; Mtb hypoxia inh: -5; PrP UTR inh: -11; Sa ugtP lethal: 6; Mtb hypoxia inh growth: -8

Results for O=C(Nc1ccccc1)Nc1cc(S(=O)(=O)N2CCOCC2)ccc1N1CCCC1 ?
BJeLR lethal: -1; Autofluor counter: 2360; Sa RN4220 lethal: 0.1; Mtb hypoxia inh: -1; PrP UTR inh: -15; Sa ugtP lethal: -1; Mtb hypoxia inh growth: 11

Results for O=C(NCCC(=O)N1CCN(S(=O)(=O)c2ccc(Cl)cc2)CC1)Nc1ccccc1 ?
Autofluor counter: 5107; Sa RN4220 lethal: 4.0; Mtb hypoxia inh: 4; PrP UTR inh: -12; Sa ugtP lethal: 1; Mtb hypoxia inh growth: -5

Results for Cc1ccn2cc(-c3ccc4c(c3)NC(=O)CO4)nc2c1 ?
BJeLR lethal: 10; Autofluor counter: 3357; Sa RN4220 lethal: 7.1; Mtb hypoxia inh: 5; PrP UTR inh: -99; Sa ugtP lethal: 3; Mtb hypoxia inh growth: 19

How did CC(C)CNC(=S)Nc1ccc(F)cc1 do in these assays?
BJeLR lethal: 3; Autofluor counter: 1998; Sa RN4220 lethal: 5.7; Mtb hypoxia inh: -7; PrP UTR inh: 3; Sa ugtP lethal: 1; Mtb hypoxia inh growth: 2

Results for Cc1sc(NC(=O)c2ccco2)c(CN2CCN(c3ccccn3)CC2)c1C ?
BJeLR lethal: 2; Autofluor counter: 23314*; Sa RN4220 lethal: -6.7; Mtb hypoxia inh: -1; PrP UTR inh: -27; Sa ugtP lethal: -28; Mtb hypoxia inh growth: 12

Results for COc1ccc(-c2cc(-c3ccco3)[nH]c(=O)c2C#N)cc1 ?
BJeLR lethal: -7; Autofluor counter: 4132; Sa RN4220 lethal: 5.6; Mtb hypoxia inh: 6; PrP UTR inh: -26; Sa ugtP lethal: 1; Mtb hypoxia inh growth: 5

Results for O=C(NCc1ccccn1)c1ccc(NS(=O)(=O)c2cccc([N+](=O)[O-])c2)cc1 ?
Autofluor counter: 4126; Sa RN4220 lethal: 1.7; Mtb hypoxia inh: -5; PrP UTR inh: -38; Sa ugtP lethal: 7; Mtb hypoxia inh growth: 5

Results for COc1cc(C(=O)Nc2cc(Cl)ccc2C)c(-n2cnnn2)cc1OC ?
BJeLR lethal: -3; Autofluor counter: 9084; Sa RN4220 lethal: 3.9; Mtb hypoxia inh: -4; PrP UTR inh: -13; Sa ugtP lethal: -1; Mtb hypoxia inh growth: 3

Entries shown so far that have an NH in an aromatic ring (4):
How did CC[C@]12c3[nH]c4ccc(OC)cc4c3CCN1C(=O)C(CC(=O)NCc1ccco1)C[C@@H]2C(=O)N1CCN(C(=O)c2ccco2)CC1 (stereo partly specified) do in these assays?
Autofluor counter: 3748; Sa RN4220 lethal: 1.7; Mtb hypoxia inh: -12; PrP UTR inh: -13; Sa ugtP lethal: 6; Mtb hypoxia inh growth: -8

What do the screens show for `Cc1c[nH]c(=O)c([N+](=O)[O-])c1`?
BJeLR lethal: 7; Autofluor counter: 3280; Sa RN4220 lethal: 3.4; Mtb hypoxia inh: 12; PrP UTR inh: 3; Sa ugtP lethal: 1; Mtb hypoxia inh growth: -1

How did COc1ccc(-c2nc(NC(=O)c3[nH]c(C)c(C(C)=O)c3C)sc2C)cc1 do in these assays?
BJeLR lethal: 26; Autofluor counter: 4776; Sa RN4220 lethal: 25; Mtb hypoxia inh: 8; PrP UTR inh: -7; Sa ugtP lethal: 21; Mtb hypoxia inh growth: 10

Results for COc1ccc(-c2cc(-c3ccco3)[nH]c(=O)c2C#N)cc1 ?
BJeLR lethal: -7; Autofluor counter: 4132; Sa RN4220 lethal: 5.6; Mtb hypoxia inh: 6; PrP UTR inh: -26; Sa ugtP lethal: 1; Mtb hypoxia inh growth: 5

No enrichment for hits; about 4% have a hit in one of these screens.
